From PubChem
MLL AF4-AF9 inh – blocks AF4 peptide binding to human AF9; AlphaScreen, biotin-AF4 peptide binding to FLAG-AF9; inhibition, % at 10 µM; 0.47% of 350,000 active;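 active = every replicate reaching a set inhibition limit, whatever the replicate mean, cut at about 25% in these data; inconclusive = mean inhibition reaches that limit but some replicates miss it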;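 note: 0% = plate neutral control median and 100% = total signal loss; the record names both 10 and 1 µM as test concentration; the first replicate is given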
Target sequence (P42568 whole entry, looked up): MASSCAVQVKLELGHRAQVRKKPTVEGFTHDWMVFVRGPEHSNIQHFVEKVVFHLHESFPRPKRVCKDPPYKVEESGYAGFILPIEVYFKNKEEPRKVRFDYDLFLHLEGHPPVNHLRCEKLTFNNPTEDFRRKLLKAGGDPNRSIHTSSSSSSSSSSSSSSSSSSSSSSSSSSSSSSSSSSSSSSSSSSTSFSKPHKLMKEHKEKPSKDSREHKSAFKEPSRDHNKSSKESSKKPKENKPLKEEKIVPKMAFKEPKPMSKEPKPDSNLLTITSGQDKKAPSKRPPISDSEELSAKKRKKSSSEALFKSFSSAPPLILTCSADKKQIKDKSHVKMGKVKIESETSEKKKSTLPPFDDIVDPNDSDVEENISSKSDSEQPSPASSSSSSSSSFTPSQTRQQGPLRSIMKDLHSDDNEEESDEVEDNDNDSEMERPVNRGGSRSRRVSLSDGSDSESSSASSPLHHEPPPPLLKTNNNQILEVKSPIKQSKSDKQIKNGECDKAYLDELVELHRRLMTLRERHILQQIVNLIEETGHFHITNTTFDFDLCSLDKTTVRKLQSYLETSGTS
Calb FLC – C. albicans growth modulation with fluconazole; growth inhibition, % (concentration not given with the values); 0.57% of 300,000 active; C. albicans CaCi-2 (fluconazole-resistant clinical isolate) + fluconazole, Alamar Blue growth, 48 h;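 active = most replicates above 75%; inconclusive = exactly half above 75%; inactive = most below 75%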;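 note: all wells also contain fluconazole at 8 µg/ml as a sub-toxic cotreatment; 0% = median of DMSO wells and 100% = median of geldanamycin control wells; wells of about 8 µL received 7.5 nL stock; the first replicate is given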
Vif TR-FRET – HIV-1 Vif–A3G interaction blockers – biochemical, TR-FRET, GST-Vif 1-94, biotin-A3G peptide, dose response retest, primary screen (AID 1117319) | one-dose inhibition, %; IC50 in µM for titrated hits | 0.57% of 260,000 active | TR-FRET GST-Vif / biotin-A3G peptide binding; higher % means a stronger effect; test concentration not given here; strong numbers were not always called active;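 active = above the screen mean plus three standard deviations and confirmed in dose response; inconclusive = results disagree or hit not tested in dose response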;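 note: Vif residues 1-94 fused to GST binding biotinylated APOBEC3G peptide 110-148; 0% = full assay without inhibitor and 100% = GST in place of GST-Vif; retest series ran down from 100 µM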
RanGTP-Impb inh – inhibitors of RanGTP-importin-beta interaction, primary screen, biochemical, FRET, CFP-Ran, YFP-importin-beta, homogeneous. cell-free CFP-Ran/YFP-importin-beta FRET ratio. inhibition, % (no concentration beside the values). 1.1% of 300,000 active;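 active = most replicates above 15%; inconclusive = exactly half above 15%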;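 note: 0% = DMSO wells and 100% = Ran loaded with GDP instead of GTP; wells of about 40 µL received 100 nL stock; the first replicate is given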
A1 inh – inhibitors of the anti-apoptotic protein A1, read as caspase activation; MEF A1-2A-BIM cells, Caspase-Glo 3/7 luminescence, 3 h; percent of clofoctol response, vehicle zero; 0.066% of 330,000 active; caspase activation, % (concentration not given with the values);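 active = over half of replicate activation scores above 10%, or exactly half above 10 with the replicate mean above 10; inconclusive = replicate mean below 10 yet half the replicates above 10; inactive = over half of replicates below 10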;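 note: wells of about 30 µL received 50 nL stock; many hits fall short of the cut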
T cruzi inh – blocks replication of Trypanosoma cruzi. T. cruzi beta-gal in NIH3T3, luminescence, 90 h. inhibition, % (test concentration not listed). 1.4% of 300,000 active;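 active = mean inhibition across valid replicates above about 55%, limit read from the data; inconclusive = mean below that limit but half or more replicates reach it; inactive = mean below it, under half of replicates reach it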;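 note: signal also drops with host cell toxicity which is not excluded here; 0% = plate median of DMSO wells and 100% = zero luminescence signal; higher percent means less beta-gal luminescence so fewer parasites; stock transfer was 50 nL into about 50 µL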
Beta cell apopt – blocks beta cell apoptosis; INS-1E cytokine-induced death, ATP luminescence, 48 h; percent of positive-control rescue, neutral wells zero; 0.8% of 300,000 active; protection from apoptosis, % (no concentration beside the values);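 active = all replicates at 75% or more, or half of them and the mean; inconclusive = half reach 75% but not the mean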;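 note: 0% = cytokine-treated negative control wells and 100% = positive control rescue; higher means more ATP so stronger rescue from cytokine killing; wells of about 40 µL received 100 nL stock; the first replicate is given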
Ecoli rRNA inh – inhibitors of bacterial rRNA selective over humanized ribosomes; E. coli WT GFP vs humanized-ribosome RFP mutants, fluorescence, 24 h; stronger effect = lower value; DMSO median 0, no signal -100; GFP signal change (wild-type ribosome), % (no concentration beside the values); 1.6% of 350,000 active; AID 720706;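 active = significant combined selectivity score with lowered wild-type GFP, culture density cut under 30%, mutant RFP and density less affected; inactive = any of these conditions unmet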; note: one replicate is shown; some compounds called inactive have numbers as strong as hits
Ecoli rRNA inh OD600 – second read-out of Ecoli rRNA inh, no call of its own (marks repeat the call); OD600 change, %; measured here: OD600 growth;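 optical density of the mix in the first replicate; 0 = DMSO median and -100 = no signal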
Ecoli rRNA inh RFP – further read-out of Ecoli rRNA inh, marked with its call; RFP signal change, %; measured here: RFP humanized mutant strains;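 first replicate; 0 = DMSO median and -100 = no signal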
* marks the source's active call; other numbers are inactive results; ? = inconclusive; . = not tested or not shown.

SMILES	MLL AF4-AF9 inh	Calb FLC	Vif TR-FRET	RanGTP-Impb inh	A1 inh	T cruzi inh	Beta cell apopt	Ecoli rRNA inh	Ecoli rRNA inh OD600	Ecoli rRNA inh RFP
O=c1cc(Nc2ccc3c(c2)OCCO3)[nH]c(=O)n1C1CCCCC1	.	-21	-2%	7.9	-0.4	-1	4	8	19	-0.9
CC(C)(C)c1ccc(C(=O)C2CCCN(C(=O)CN3CCCC3=O)C2)cc1 (stereo unspecified)	2.9	-12	-3%	0.2	0.7	-2	0	-2	-5	-5.1
CC(=O)Nc1cccc(-c2nnc(SCc3ccccc3C#N)n2C)c1	.	0	3%	-0.8	0.7	-2	1	3	3	1.4
CC(=O)NNc1ncnc2c1cnn2-c1ccccc1	-9.3	-12	6%	-0.5	-0.4	-14	-2	3	7	3.4
O=C(COc1ccccc1C(=O)NCc1ccccc1)Nc1ccccc1	-0.2	.	.	.	0.4	.	-16	2	0	1.1
Cc1cccc(OCc2nn[nH]n2)c1C	-5.5	1	3%	-4.3	0.3	-4	2	-13	-7	-0.1
O=C(O)C1C(c2ccccc2)C(C(=O)Oc2ccc(O)cc2)C1c1ccccc1 (stereo unspecified)	.	-15	5%	1.0	0.4	1	-8	.	.	.
COc1ccc(C(=O)Nc2sc(C)c(C)c2CN2CCOCC2)cc1	1.6	16	7%	1.4	0.0	24	3	-3	6	1.0
CCOCCCNc1nc2nc3ccc(C)cn3c(=O)c2cc1C(=O)NCC1CCCO1 (stereo unspecified)	-2.8	-9	2%	-0.9	0.9	5	-4	18	24	0.0
CCN=C(N/N=C/c1ccc([N+](=O)[O-])cc1)SC	.	3	19%	-1.0	?	-13	.	.	.	.
CCCCCC(O)(CCN1CCCCC1)c1ccccc1 (stereo unspecified)	1.3	-11	-5%	4.5	0.1	-5	-1	16	3	-2.2
Cc1ncc(N=Nc2ccc(F)cc2)c(-c2ccc(Cl)cc2)n1	.	-8	4%	0.4	-0.5	-8	0	.	.	.
COC(=O)Cn1c(Cc2ccccc2)nc2ccccc21	-4.4	-16	-14%	0.7	-0.1	-13	-2	0	0	-1.8
CCC1=C(OC(=O)N(CC)CC)N2C(=O)OC(=NCC3CC3)[C@]2(C)[C@H]2C1=CC[C@H]1C(=O)N(C)C(=O)[C@H]12	5.1	-12	.	5.3	-0.2	-22	-4	3	3	-1.9
CSc1nc(N(C)NC(=O)c2cccc(C)c2)c2ccccc2n1	.	-33	0%	7.1	-0.9	8	59	.	.	.
CCOC(=O)C1CCN(C(=O)COC(=O)CN(C)S(=O)(=O)c2ccc(NC(C)=O)cc2)CC1	-1.5	7	-8%	-1.6	-0.3	14	-1	15	12	1.7
COCC(=O)Nc1cc(C(=O)Nc2ccccc2C)ccc1Cl	.	36	5%	3.9	-1.7	-14	-3	.	.	.
O=C(COc1ccc2ccccc2c1)NNC(=O)c1ccc([N+](=O)[O-])cc1	0.0	-7	-4%	3.5	-0.1	-12	-4	18	11	1.4
CCCC12CN3CC(C)(CN(C1)C31C(=O)Nc3ccc(C)cc31)C2=O (stereo unspecified)	-38	-11	26%	?	0.3	-11	-6	5	-2	5.1
CCOC(=O)N1CCN(CC(O)COc2ccccc2C(C)C)CC1 (stereo unspecified)	.	-6	3%	.	0.1	.	-6	.	.	.
O=[N+]([O-])c1cc(S(=O)(=O)N2CCCC2)ccc1N/N=C/c1ccccn1	-7.1	16	?	2.5	0.3	-8	.	2	3	7.7
CCC(=O)N(Cc1cc2ccc(C)cc2[nH]c1=O)c1ccccc1OC	-4.4	-3	.	0.8	-0.9	11	-2	-3	-8	-3.0
COc1ccccc1C(=O)NCC(=O)Nc1ccccc1	.	7	-2%	1.5	0.2	-9	-3	.	.	.
CCOc1ccccc1CNC(=O)CCCC(=O)n1nc(C)c2ccccc21	0.5	-16	1%	-0.5	0.5	4	-1	19	14	3.9
CN(c1ccc(C(=O)Nc2ccccc2C(=O)N2CCCC2)cc1)S(C)(=O)=O	.	2	0%	1.1	-0.2	-6	1	.	.	.
Carrying on:
SMILES	MLL AF4-AF9 inh	Calb FLC	Vif TR-FRET	RanGTP-Impb inh	A1 inh	T cruzi inh	Beta cell apopt	Ecoli rRNA inh	Ecoli rRNA inh OD600	Ecoli rRNA inh RFP
CCN(CC)c1ccc(C(=O)OCC(=O)Nc2ccc3[nH]c(=O)[nH]c3c2)cc1	-2.3	32	.	3.0	0.2	2	0	-21	-20	-1.1
COc1cccc(C(=O)CC(=O)C(=O)Nc2cc(OC)ccc2OC)c1	3.9	-1	.	1.6	1.8	-6	3	10	13	0.0
COc1ccc(/C=N/NC(=S)Nc2ccccc2)cc1	3.7	20	.	4.0	0.2	26	9	-35	-43	-3.2
c1ccc(-n2nnnc2SCCCSc2nc3ccccc3s2)cc1	5.4	0	25%	-4.0	-0.5	28	0	-14	-11	-2.9
O=C(NC(=O)c1ccccc1)Nc1cccc(S(=O)(=O)N2CCCCC2)c1	5.5	-3	.	0.4	1.0	-6	-5	14	7	-0.2
O=C1C(=O)N(Cc2ccccc2)C(=O)N1CCN1C(=O)c2ccccc2C1=O	-0.6	-4	.	-1.9	-0.3	-2	1	14	13	2.1
CCCSc1nc2c(cnn2-c2ccc(C)c(C)c2)c(=O)[nH]1	-3.3	4	-1%	7.0	-0.2	8	.	9	18	1.8
O=C(NCc1ccccc1)C1CCC(=O)N(CC2CCCCC2)C1 (stereo unspecified)	-0.3	-10	-7%	-0.9	0.0	-10	-6	5	3	-1.3
CCN(CC)c1ccc(N=Cc2c(C)[nH]c3ccccc23)cc1	.	10	?	-2.3	0.2	52	24	.	.	.
CC(=O)c1cnc2nc(SCc3cccc(C)c3)nn2c1C	1.7	5	.	1.4	-1.0	17	-2	-26	-34	-2.5
COc1ccc(S(=O)(=O)N2CCOCC2)cc1NC(=O)Cc1c(Cl)cccc1Cl	.	2	1%	-5.1	1.0	7	0	.	.	.
CCOC(=S)SCC(=O)Nc1nc(C)c(C)s1	-26	-7	-16%	0.5	0.7	-71	-12	0	1	3.2
COc1cc(CC(NC(C)=O)C(=O)NC2CCN(C(=O)Nc3ccccc3C)CC2)cc(OC)c1 (stereo unspecified)	0.9	-5	3%	-2.7	-0.8	-8	1	4	17	0.2
COc1ccc(OC)c(NC(=O)CCCC(=O)NC2CCCCC2)c1	2.1	42	.	0.7	-0.7	-5	5	5	6	-4.8
Cc1cccc(C)c1NC(=O)COc1cccc(/C=N/NC(=O)C(=O)NCc2ccccc2)c1	.	-2	-3%	?	0.1	-8	10	19	17	-0.6
CC1(C)Cc2c(C#N)c(SCCOc3ccccc3)nc(N3CCOCC3)c2CO1	.	13	-18%	-0.7	-0.2	69*	.	.	.	.
Cc1ccc(O)c(NC(=O)c2ccc3c(c2)C(=O)N(Cc2ccco2)C3=O)c1	-2.7	-20	.	4.3	1.3	-12	0	-1	-10	-0.9
Cc1nn(Cc2c(F)c(F)c(F)c(F)c2F)c(C)c1NC(=O)c1c(-c2ccccc2)nn(-c2ccccc2)c1C	.	-16	4%	0.9	0.4	15	2	.	.	.
COC(=O)c1cc(=O)nc2sccn12	.	-3	22%	?	-0.3	5	-3	.	.	.
Cc1cccc(C)c1NC(=S)N(Cc1ccccc1)Cc1cccnc1	5.3	-21	1%	5.6	0.4	79*	7	-20	-14	-1.0
CCN(CC)S(=O)(=O)c1ccc(C)c(C)c1	.	-3	5%	-2.1	-0.4	7	-4	.	.	.
Cc1cc2ncn(-c3ncccc3[N+](=O)[O-])c2cc1C	7.4	3	15%	?	-0.3	22	-10	-4	-8	-0.4
O=C(c1ccccc1)c1cc([N+](=O)[O-])ccc1N1CCCC1	.	24	-1%	3.0	-1.3	-7	-13	.	.	.
CCOC(=O)c1[nH]c2ccc(OC)cc2c1NC(=O)N1CCOCC1	.	-1	2%	4.8	0.0	-18	-4	.	.	.
COc1ccccc1Nc1nc(NCC(C)C)nc(N)c1[N+](=O)[O-]	-2.3	12	20%	1.0	-0.7	17	.	-6	0	5.1
Other records follow.
SMILES	MLL AF4-AF9 inh	Calb FLC	Vif TR-FRET	RanGTP-Impb inh	A1 inh	T cruzi inh	Beta cell apopt	Ecoli rRNA inh	Ecoli rRNA inh OD600	Ecoli rRNA inh RFP
COc1cccc(C2=NOC(C(=O)NCc3ccco3)C2)c1 (stereo unspecified)	.	2	18%	-0.6	0.4	-27	-1	.	.	.
Cc1nn(C)c(C)c1NC(=O)c1ccc(Br)o1	-15	-6	1%	-1.0	-0.1	-16	-5	8	-8	4.0
O=C(Nc1ccc2c(c1)OCCO2)c1cncc(Br)c1	.	-18	-3%	?	-10	-4	-1	.	.	.
Cc1nnc(SCCN2C(=O)c3ccccc3C2=O)nc1C	.	-11	.	-0.8	0.8	-19	-6	.	.	.
CCCCCC(/C=N/Nc1ccc(S(=O)(=O)N2CCOCC2)cc1[N+](=O)[O-])=C\c1ccccc1	.	-10	-3%	4.6	0.7	-1	11	.	.	.
COc1cccc(C(=O)NC2CCCN(C3Cc4ccccc4C3)C2)c1OC (stereo unspecified)	26*	27	.	4.8	1.8	10	-3	5	3	4.4
CCc1cccc(CC)c1NC(=S)Nc1ccccc1	0.8	13	?	0.4	0.5	5	3	7	10	0.2
CCCS(=O)(=O)Nc1cccc(-c2cn3c(n2)SCC3)c1	0.9	1	-1%	-3.2	0.5	-2	-6	1	13	0.8
Cc1cc(C)n(Cc2n[nH]c(=S)n2Cc2ccccc2)n1	.	-1	5%	1.9	0.3	-2	-1	.	.	.
Cc1ccc(S(=O)(=O)N2CCN(C(=O)CCC(=O)NCc3ccc(F)cc3)CC2)cc1	.	5	2%	-0.9	0.7	-6	-2	.	.	.
COc1ccc([N+](=O)[O-])cc1N(CC(=O)Nc1ccccc1C(=O)N1CCCC1)S(C)(=O)=O	-0.2	1	.	?	0.0	8	-2	12	5	0.3
O=C(C1CCN(S(=O)(=O)N2CCC3(CC2)OCCO3)CC1)N1CCc2ccccc2C1	-6.7	4	-1%	-2.2	0.9	-1	-2	-28	-30	2.2
Cc1ccccc1S(=O)(=O)Cc1ccc(C(=O)N2CCN(c3cccc(C)c3C)CC2)o1	.	17	-1%	8.8	1.5	24	18	.	.	.
O=C(NCCCNC(=O)c1ccccc1)c1ccccc1	-2.6	-2	.	1.5	-0.1	-3	.	.	.	.
O=C(CSc1nnc2ccc(-c3ccc(F)cc3)nn12)N1CCOCC1	0.4	14	1%	2.1	1.9	-4	.	8	5	-2.1
CCCNC(=O)CCn1nc(-c2ccc(C)cc2)c2ccccc2c1=O	1.0	-9	-5%	?	-0.5	13	-1	-3	-3	1.1
O=C(COc1ccc(F)cc1)NCC1CCCO1 (stereo unspecified)	.	-11	15%	-2.6	0.2	1	-6	.	.	.

Only part of the results is shown, so the mix of outcomes need not match the whole.
